Bioassay records: PubChem, ICCB-Longwood Screening Facility, Harvard Medical School
Sa growth 42C: S. aureus growth inhibition at 42 and 30 °C, primary screen, LtaS inhibitor project, RN4220, two temperatures. OD600, 20 h, 42 °C; stronger effect = lower value. relative growth, % (concentration not given with the values). 170,000 tested, 0.53% active. AID 720641, 2013;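 active = growth at 42 °C up to 50% and 20 or more points under that at 30 °C, or under 10% at both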;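 note: 300 nL library stock went into each well; scaled to the means of positive and negative controls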
HCMV UL50-53 inh: inhibitors of HCMV UL50-UL53 interaction, biochemical, HTRF; HCMV UL50-UL53 nuclear egress complex (human cytomegalovirus); normalized percent inhibition; inhibition, % (no concentration beside the values); 190,000 tested, 0.15% active; AID 1918969, 2023;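 active = both replicates at 50% or more, plus weaker picks with an unusually low signal ratio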;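 note: stock transfer was 100 nL into about 20 µL; 0% = negative control wells and 100% = wells with untagged competitor protein; inactives centre near -12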
GIV Gai3 FP: inhibitors of GIV peptide binding to Galpha-i3, primary screen, biochemical, fluorescence polarization, FITC-GIV GBA peptide, rat Galphai3; 90 min; stronger effect = lower value; scaled: aluminum fluoride 0%, vehicle 100%; percent of control (FP), % (no concentration beside the values); 210,000 tested, 0.42% active; AID 1224905, 2016;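 active = replicate mean at 85% of control or lower, very high polarization wells dropped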;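 note: wells of about 15 µL received 100 nL stock; the first replicate is given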
Target sequence (P08753 whole entry, looked up): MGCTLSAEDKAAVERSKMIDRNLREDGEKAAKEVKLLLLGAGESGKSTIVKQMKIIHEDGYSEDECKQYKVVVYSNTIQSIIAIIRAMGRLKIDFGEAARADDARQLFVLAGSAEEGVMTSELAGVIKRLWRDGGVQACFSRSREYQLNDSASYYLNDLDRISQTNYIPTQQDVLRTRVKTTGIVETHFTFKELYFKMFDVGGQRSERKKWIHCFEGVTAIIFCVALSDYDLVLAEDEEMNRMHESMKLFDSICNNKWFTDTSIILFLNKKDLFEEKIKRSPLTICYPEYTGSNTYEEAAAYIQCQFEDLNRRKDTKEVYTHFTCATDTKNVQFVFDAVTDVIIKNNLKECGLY
Sa growth 42C second temp: also measured in Sa growth 42C; calls as there; relative growth, %; measured here: growth at 30 °C;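 optical density after 20 h as mean of two plates; 100% = untreated growth and lower means inhibition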
Starred values were filed as active, the others as inactive; & = joins results of further samples. Compounds were not picked by outcome; 0.8% or so of the library scored in one or more.

Screening O=C(COc1ncnc2ccccc12)N1CCCCC1 returned Sa growth 42C 81, HCMV UL50-53 inh 15 and Sa growth 42C second temp 95.
For CCN1CCC(N(Cc2ccc(F)cc2)C(=O)Nc2ccccc2Cl)CC1 the results were Sa growth 42C 105, GIV Gai3 FP 97 and Sa growth 42C second temp 86.
`O=C(C1CCCCC1)N1CCN(c2ccnc3cc(Cl)ccc23)CC1` gave Sa growth 42C 96, HCMV UL50-53 inh -14, GIV Gai3 FP 96 and Sa growth 42C second temp 88.
Screening Cc1cccc(CCNC(=O)c2ccc(CSCc3cccc(Cl)c3)o2)c1 returned Sa growth 42C 88, GIV Gai3 FP 104 and Sa growth 42C second temp 88.
Screening COc1ccc(N2C(=O)CC(Sc3nc(N)c(C#N)c(-c4ccccc4)c3C#N)C2=O)cc1 (stereo unspecified) returned HCMV UL50-53 inh 3 and GIV Gai3 FP 105.
Screening O=C1NC(=O)N(c2ccc3c(c2)OCO3)C(=O)/C1=C/c1ccc(-c2ccc(F)cc2)o1 returned HCMV UL50-53 inh 11 and GIV Gai3 FP 102.
`CCc1ccc2oc(-c3ccc(NC(=O)c4ccccc4)cc3)nc2c1` gave Sa growth 42C 83, GIV Gai3 FP 106 and Sa growth 42C second temp 88.
For OC1(C#CCN2CCCCCC2)CCCCC1 the results were Sa growth 42C 112, HCMV UL50-53 inh -20, GIV Gai3 FP 101 and Sa growth 42C second temp 94.
For O=C(CCc1nc2cccnc2n1Cc1cccs1)N1CCc2ccccc21 the results were Sa growth 42C 85, GIV Gai3 FP 116 and Sa growth 42C second temp 86.
For Cc1cccc(N(C)C(=O)CCNS(=O)(=O)c2ccc3c(c2)CCN3C(=O)C2CC2)c1 the results were Sa growth 42C 102, GIV Gai3 FP 101 and Sa growth 42C second temp 91.
`COc1ccccc1CNC(=O)C(=O)NCC(c1ccco1)S(=O)(=O)c1cccs1` (stereo unspecified) gave Sa growth 42C 104, GIV Gai3 FP 100 and Sa growth 42C second temp 84.
Screening CCOC(=O)c1sc(NC(=O)c2cc(-c3ccccc3)nc3ccccc23)c(C(N)=O)c1C returned HCMV UL50-53 inh -14 and GIV Gai3 FP 103.
For CC(=O)Nc1ccc(O)c(C(=O)O)c1 the results were Sa growth 42C 111, HCMV UL50-53 inh -9, GIV Gai3 FP 106 and Sa growth 42C second temp 90.
`COc1ccc(OC)c(NC(=O)CCc2c(C)nc3c(c(C)nn3C(C)(C)C)c2C)c1` gave Sa growth 42C 102, HCMV UL50-53 inh 0, GIV Gai3 FP 106 and Sa growth 42C second temp 94.
For O=C(Nc1ccccc1)Nc1cccc(C(F)(F)F)c1 the results were Sa growth 42C 54, GIV Gai3 FP 102 and Sa growth 42C second temp 49.
Screening CSc1ccccc1NC(=O)Cn1nc(C(F)(F)F)cc1C returned Sa growth 42C 93, HCMV UL50-53 inh -31, GIV Gai3 FP 101 and Sa growth 42C second temp 82.
For COc1nonc1NC(C)=O the results were Sa growth 42C 91, HCMV UL50-53 inh 3 and Sa growth 42C second temp 95.
Screening CCCCCSc1nnc2c(n1)OC(c1ccc(C)s1)N(C(C)=O)c1ccccc1-2 (stereo unspecified) returned Sa growth 42C 115, HCMV UL50-53 inh -19, GIV Gai3 FP 102 and Sa growth 42C second temp 92.
`Cc1c(Cl)cccc1NC(=O)N1CCOc2ccccc21` gave Sa growth 42C 114, HCMV UL50-53 inh -2, GIV Gai3 FP 100 and Sa growth 42C second temp 108.
For CCCn1c(=O)oc2cc(NC(=O)c3c(-c4ccccc4Cl)noc3C)ccc21 the results were HCMV UL50-53 inh 3 and GIV Gai3 FP 100.
Screening O=C(Nc1ccc2c(c1)OCO2)c1ccccc1 returned Sa growth 42C 102, HCMV UL50-53 inh -3, GIV Gai3 FP 106 and Sa growth 42C second temp 89.
For Cn1c(=O)c2cc(C(=O)c3ccccc3O)cnc2n(C)c1=O the results were Sa growth 42C 85, HCMV UL50-53 inh -1 and Sa growth 42C second temp 96.
Screening COc1ccc2c(c1)c1nc3ccccc3nc1n2C returned Sa growth 42C 84, HCMV UL50-53 inh -10, GIV Gai3 FP 104 and Sa growth 42C second temp 63.
`NC(=S)Cc1ccccc1` gave Sa growth 42C 99, HCMV UL50-53 inh -8 and Sa growth 42C second temp 90.
For CC1Cc2cc(CCC(=O)O)ccc2O1 (stereo unspecified) the results were Sa growth 42C 102, HCMV UL50-53 inh -22, GIV Gai3 FP 100 and Sa growth 42C second temp 92.
COc1cccc(NCc2cccc3c2CN(CC2CCCO2)C3)c1 (stereo unspecified) was read as Sa growth 42C 90, GIV Gai3 FP 112 and Sa growth 42C second temp 77.
For CCCNC(=O)c1ccc(N2CC3CC(C2)c2cccc(=O)n2C3)c(NS(=O)(=O)c2ccc3c(c2)OCCO3)c1 (stereo unspecified) the results were Sa growth 42C 104, HCMV UL50-53 inh 3, GIV Gai3 FP 105 and Sa growth 42C second temp 99.
For O=C(Cn1c(=O)n(-c2ccccc2Cl)c(=O)c2sc3ccccc3c21)N1CCCC1 the results were Sa growth 42C 105, HCMV UL50-53 inh -68, GIV Gai3 FP 104 and Sa growth 42C second temp 87.
`COc1ccc(N2CCN(C(=O)C3CCN(Cc4nc(-c5ccc(Cl)cc5)oc4C)CC3)CC2)cc1` gave Sa growth 42C 97, HCMV UL50-53 inh -29&-41, GIV Gai3 FP 104&105 and Sa growth 42C second temp 92.
Screening O=C(Nc1ccccc1)/C(=C/c1ccccc1)NC(=O)c1ccco1 returned Sa growth 42C 109, HCMV UL50-53 inh 9, GIV Gai3 FP 100 and Sa growth 42C second temp 96.
Screening CCOC(=O)c1cc(-c2ccc(C)cc2)n(CC(=O)Nc2cc(C)ccc2C)c1C returned Sa growth 42C 109, HCMV UL50-53 inh -12, GIV Gai3 FP 103 and Sa growth 42C second temp 81.
O=[N+]([O-])c1cc(CN2CCN(c3cccc(C(F)(F)F)c3)CC2)c2cccnc2c1O was read as HCMV UL50-53 inh -18 and GIV Gai3 FP 99.
Screening Cc1ccn2c(=O)cc(COc3ccc(NC(=O)COc4ccc(C)c(C)c4)cc3)nc2c1 returned Sa growth 42C 71, GIV Gai3 FP 97 and Sa growth 42C second temp 83.
Screening CO/N=C(\C(=O)N[C@@H]1C(=O)N2C(C(=O)O)=C(COC(C)=O)CS[C@H]12)c1csc(N)n1 returned Sa growth 42C -0.8*, HCMV UL50-53 inh -24, GIV Gai3 FP 105 and Sa growth 42C second temp -0.6*.
O=S1(=O)c2ccccc2N(Cc2cccc(Cl)c2)c2ccccc21 was read as Sa growth 42C 103, GIV Gai3 FP 100 and Sa growth 42C second temp 90.
For Cc1noc(C)c1CSc1ncccc1C(=O)NCCc1ccc(S(N)(=O)=O)cc1 the results were Sa growth 42C 98, HCMV UL50-53 inh -6 and Sa growth 42C second temp 88.
COCCN1C(=O)/C(=C\c2c(Cl)cccc2Cl)C(C(=O)OC)=C1C was read as Sa growth 42C 102, HCMV UL50-53 inh -12 and Sa growth 42C second temp 92.
`O=C(CN1CCCC1c1cccs1)Nc1cc(C(F)(F)F)ccc1-n1cncn1` (stereo unspecified) gave Sa growth 42C 109, HCMV UL50-53 inh 6 and Sa growth 42C second temp 92.
For Fc1ccc(C2=CC(c3ccc(F)cc3)n3c(nc4ccccc43)N2)cc1 (stereo unspecified) the results were Sa growth 42C 99, GIV Gai3 FP 106 and Sa growth 42C second temp 72.
`O=C(CSc1ccc2c(c1)OCCO2)NCC(F)(F)F` gave Sa growth 42C 104, HCMV UL50-53 inh -8 and Sa growth 42C second temp 88.
N#CC(C#N)=CC1CCCCC1 was read as Sa growth 42C 71, HCMV UL50-53 inh 10 and Sa growth 42C second temp 70.
COc1ccc(CC(O)CN2CCCCC2)cc1 (stereo unspecified) was read as Sa growth 42C 114, HCMV UL50-53 inh 0, GIV Gai3 FP 108 and Sa growth 42C second temp 84.
For O=C(CN1CCN(c2ccc(NC(=O)C3CCC3)c(C(=O)O)c2)CC1)Nc1ccc(F)cc1 the results were HCMV UL50-53 inh 13 and GIV Gai3 FP 97.
`CCC(C)(C)C(=O)Nc1ccccc1C(C)C` gave Sa growth 42C 91, HCMV UL50-53 inh -4, GIV Gai3 FP 96 and Sa growth 42C second temp 100.
For CCCNS(=O)(=O)c1cc(-c2nnc3c4ccccc4c(C)nn23)ccc1OC the results were Sa growth 42C 103, HCMV UL50-53 inh inactive, GIV Gai3 FP 105 and Sa growth 42C second temp 84.
`NC(=O)C1CCN(C2=NC(=O)/C(=C\c3ccc(Br)cc3)S2)CC1` gave Sa growth 42C 112, HCMV UL50-53 inh -43, GIV Gai3 FP 97 and Sa growth 42C second temp 102.
`CCOc1ccc(NC(=O)c2oc3ccccc3c2NC(=O)C2CCCCC2)cc1` gave Sa growth 42C 98, HCMV UL50-53 inh -33, GIV Gai3 FP 106 and Sa growth 42C second temp 89.
Cc1ccc(Nc2nc3nonc3nc2N(C)C)cc1 was read as HCMV UL50-53 inh -81 and GIV Gai3 FP 96.
Screening COc1cc(OC)cc(-c2nnc(-c3ccccc3Cl)o2)c1 returned HCMV UL50-53 inh 13 and GIV Gai3 FP 100.
For Cc1oc(-n2cccc2)c(C#N)c1C(=O)O the results were Sa growth 42C 101, HCMV UL50-53 inh -6 and Sa growth 42C second temp 97.
COc1ccc(C(=O)Nc2nc(C)cs2)cc1S(=O)(=O)N1CCCCC1C (stereo unspecified) was read as Sa growth 42C 81, HCMV UL50-53 inh -5 and Sa growth 42C second temp 78.
`Cn1cc(S(=O)(=O)N2CCCCC2)cc1C(=O)N1CCc2ccccc2C1` gave HCMV UL50-53 inh -22 and GIV Gai3 FP 107.
`O=C(CC1SC(=O)N(c2ccccc2)C1=O)Nc1ccccc1` (stereo unspecified) gave Sa growth 42C 56, HCMV UL50-53 inh -9, GIV Gai3 FP 98 and Sa growth 42C second temp 64.
Screening CCNc1nc(C(F)(F)F)cc(=O)[nH]1 returned HCMV UL50-53 inh 22 and GIV Gai3 FP 107.
Screening NCCSCc1cccs1 returned Sa growth 42C 85, HCMV UL50-53 inh -17 and Sa growth 42C second temp 84.
CCCNC(=O)c1ccc(CSc2nc3ccncc3[nH]2)cc1 was read as Sa growth 42C 105, HCMV UL50-53 inh -27, GIV Gai3 FP 109&98 and Sa growth 42C second temp 87.
For CCCCC(=O)Nc1nnc(-c2ccc(C)c(C)c2)o1 the results were Sa growth 42C 37, HCMV UL50-53 inh -6, GIV Gai3 FP 98 and Sa growth 42C second temp 14.
COC(=O)C1=C(C)NC(C)=C(C(=O)OC)C1C1CC=CCC1 (stereo unspecified) was read as Sa growth 42C 75, HCMV UL50-53 inh -4, GIV Gai3 FP 104 and Sa growth 42C second temp 101.
For CC(C)(Oc1ccccc1OC(=O)c1ccccc1)C(=O)CBr the results were Sa growth 42C 81, HCMV UL50-53 inh -8 and Sa growth 42C second temp 39.
CC(NC(=O)C1CCN(C(=O)N(C)C)CC1)c1ccccc1 (stereo unspecified) was read as Sa growth 42C 87, GIV Gai3 FP 105 and Sa growth 42C second temp 90.

Filtered by structure: those above containing bromine
`NC(=O)C1CCN(C2=NC(=O)/C(=C\c3ccc(Br)cc3)S2)CC1` gave Sa growth 42C 112, HCMV UL50-53 inh -43, GIV Gai3 FP 97 and Sa growth 42C second temp 102.
For CC(C)(Oc1ccccc1OC(=O)c1ccccc1)C(=O)CBr the results were Sa growth 42C 81, HCMV UL50-53 inh -8 and Sa growth 42C second temp 39.

More entries
O=C1NC(=S)S/C1=C\c1cn(CC(=O)N2CCOCC2)c2ccccc12 was read as Sa growth 42C 115, HCMV UL50-53 inh -62, GIV Gai3 FP 246 and Sa growth 42C second temp 85.
For O=C(NCCCN1CCN(Cc2ccccc2)CC1)c1cnn(-c2ccccc2)c1-n1cccc1 the results were Sa growth 42C 98, HCMV UL50-53 inh -21, GIV Gai3 FP 103 and Sa growth 42C second temp 85.
`CN1/C(=C/C(=O)C2CCC2)Sc2ccccc21` gave Sa growth 42C 96, HCMV UL50-53 inh -24, GIV Gai3 FP 100 and Sa growth 42C second temp 63.
Screening Cc1cccc(Cn2c(CNS(=O)(=O)c3ccc(C(C)C)cc3)nc3cccnc32)c1 returned Sa growth 42C 102, GIV Gai3 FP 102 and Sa growth 42C second temp 84.
For O=C(NC(=O)c1ccccc1)NC1CCCC1 the results were Sa growth 42C 122, HCMV UL50-53 inh 10, GIV Gai3 FP 104 and Sa growth 42C second temp 108.
`COc1cccc(C(=O)N2CCN(C(=O)c3ccc(F)cc3)c3ccccc3C2)c1` gave Sa growth 42C 123, HCMV UL50-53 inh 2 and Sa growth 42C second temp 85.
N#Cc1cc(Cl)ccc1Nc1ncnc(N)n1 was read as Sa growth 42C 126, HCMV UL50-53 inh -3, GIV Gai3 FP 104 and Sa growth 42C second temp 57.
For COc1ccc(N2CCN(C(=O)C3CCN(S(=O)(=O)c4ccc5c(c4)oc(=O)n5C)CC3)CC2)cc1 the results were Sa growth 42C 85, HCMV UL50-53 inh -32, GIV Gai3 FP 101 and Sa growth 42C second temp 90.

2 records picked at random from the list so far:
For Fc1ccc(C2=CC(c3ccc(F)cc3)n3c(nc4ccccc43)N2)cc1 (stereo unspecified) the results were Sa growth 42C 99, GIV Gai3 FP 106 and Sa growth 42C second temp 72.
Screening O=C(COc1ncnc2ccccc12)N1CCCCC1 returned Sa growth 42C 81, HCMV UL50-53 inh 15 and Sa growth 42C second temp 95.
